Ecoli rRNA inh: inhibitors of bacterial rRNA selective over humanized ribosomes | GFP signal change (wild-type ribosome), % (concentration not given with the values) | E. coli WT GFP vs humanized-ribosome RFP mutants, fluorescence, 24 h; active compounds read low; DMSO median 0, no signal -100 | hit rate 1.6% among 350,000;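 active = significant combined selectivity score with lowered wild-type GFP, culture density cut under 30%, mutant RFP and density less affected; inactive = any of these conditions unmet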; note: one replicate is shown; some compounds called inactive have numbers as strong as hits
LANA-H2B inh: blocks KSHV LANA binding to histone H2A/H2B; Q9QR71; AID 2629; cell-free LANA-H2A/H2B peptide, fluorescence polarization; hit rate 0.6% among 320,000; inhibition, % (test concentration not listed); in the data active = inhibition mostly above about 10%, no sharp cut-off; inactive = mostly below about 6.7%;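 note: stock transfer was 7.5 nL into about 10 µL; 0% = median of vehicle wells and 100% = median of positive control wells; one replicate is shown; the record names a cut of 25% in any replicate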
Target sequence (Q9QR71 whole entry, looked up): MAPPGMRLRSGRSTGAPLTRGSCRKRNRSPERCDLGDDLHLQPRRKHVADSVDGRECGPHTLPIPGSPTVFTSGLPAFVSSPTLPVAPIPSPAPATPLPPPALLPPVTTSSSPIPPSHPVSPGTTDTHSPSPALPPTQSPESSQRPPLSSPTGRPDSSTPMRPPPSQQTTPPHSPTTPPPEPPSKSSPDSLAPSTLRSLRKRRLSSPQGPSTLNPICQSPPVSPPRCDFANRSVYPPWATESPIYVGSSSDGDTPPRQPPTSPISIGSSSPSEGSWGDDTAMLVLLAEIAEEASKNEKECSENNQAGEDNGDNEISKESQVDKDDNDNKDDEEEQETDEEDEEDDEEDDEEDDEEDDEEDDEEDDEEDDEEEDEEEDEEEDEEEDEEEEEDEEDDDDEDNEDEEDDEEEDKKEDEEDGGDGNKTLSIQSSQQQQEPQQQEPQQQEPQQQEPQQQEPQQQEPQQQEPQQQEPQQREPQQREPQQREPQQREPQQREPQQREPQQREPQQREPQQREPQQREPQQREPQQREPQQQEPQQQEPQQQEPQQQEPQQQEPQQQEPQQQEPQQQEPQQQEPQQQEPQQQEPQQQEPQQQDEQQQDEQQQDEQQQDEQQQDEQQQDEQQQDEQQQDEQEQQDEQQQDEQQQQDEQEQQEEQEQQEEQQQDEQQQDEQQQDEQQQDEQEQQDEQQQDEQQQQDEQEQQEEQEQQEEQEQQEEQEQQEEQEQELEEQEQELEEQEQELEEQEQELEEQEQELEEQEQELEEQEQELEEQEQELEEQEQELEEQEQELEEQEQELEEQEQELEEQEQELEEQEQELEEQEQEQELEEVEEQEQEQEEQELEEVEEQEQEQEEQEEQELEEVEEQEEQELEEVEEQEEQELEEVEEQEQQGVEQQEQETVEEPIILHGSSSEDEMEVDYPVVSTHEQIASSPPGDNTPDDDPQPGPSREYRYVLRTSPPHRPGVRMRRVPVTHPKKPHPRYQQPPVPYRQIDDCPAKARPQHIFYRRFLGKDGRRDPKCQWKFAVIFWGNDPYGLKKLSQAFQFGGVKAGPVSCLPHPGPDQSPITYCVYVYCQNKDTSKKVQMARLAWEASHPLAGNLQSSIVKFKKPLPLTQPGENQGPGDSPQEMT
Calb FLC: affects C. albicans growth with fluconazole | AID 1979 | C. albicans CaCi-2 (fluconazole-resistant clinical isolate) + fluconazole, Alamar Blue growth, 48 h | growth inhibition, % (concentration not given with the values) | hit rate 0.57% among 300,000;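 active = most replicates above 75%; inconclusive = exactly half above 75%; inactive = most below 75%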;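 note: all wells also contain fluconazole at 8 µg/ml as a sub-toxic cotreatment; 0% = median of DMSO wells and 100% = median of geldanamycin control wells; wells of about 8 µL received 7.5 nL stock; the first replicate is given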
T cruzi inh: T. cruzi replication inhibition. hit rate 1.4% among 300,000. T. cruzi beta-gal in NIH3T3, luminescence, 90 h. inhibition, % (no concentration beside the values);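 active = mean inhibition across valid replicates above about 55%, limit read from the data; inconclusive = mean below that limit but half or more replicates reach it; inactive = mean below it, under half of replicates reach it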;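 note: signal also drops with host cell toxicity which is not excluded here; 0% = plate median of DMSO wells and 100% = zero luminescence signal; higher percent means less beta-gal luminescence so fewer parasites; stock transfer was 50 nL into about 50 µL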
A1 inh: inhibitors of the anti-apoptotic protein A1, read as caspase activation. MEF A1-2A-BIM cells, Caspase-Glo 3/7 luminescence, 3 h; percent of clofoctol response, vehicle zero. caspase activation, % (concentration not given with the values). hit rate 0.066% among 330,000;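 active = over half of replicate activation scores above 10%, or exactly half above 10 with the replicate mean above 10; inconclusive = replicate mean below 10 yet half the replicates above 10; inactive = over half of replicates below 10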;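 note: wells of about 30 µL received 50 nL stock; many hits fall short of the cut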
Beta apoptosis: beta cell apoptosis inhibition. INS-1E cytokine-induced death, ATP luminescence, 48 h; percent of positive-control rescue, neutral wells zero. protection from apoptosis, % (concentration not given with the values). hit rate 0.8% among 300,000;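 active = all replicates at 75% or more, or half of them and the mean; inconclusive = half reach 75% but not the mean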;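 note: 0% = cytokine-treated negative control wells and 100% = positive control rescue; higher means more ATP so stronger rescue from cytokine killing; wells of about 40 µL received 100 nL stock; the first replicate is given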
ALR inh: blocks human ALR sulfhydryl oxidase activity; inhibition, % (concentration not given with the values); P55789; purified ALR, DTT oxidation, H2O2 HRP-luminol luminescence; AID 485317; hit rate 3.8% among 290,000;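 active = mean and each replicate at 75% or more; inconclusive = only one of the two met; inactive = neither met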;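 note: stock transfer was 7.5 nL into about 7.5 µL; 0% = neutral wells and 100% = wells with inactivated enzyme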
Beta2AR agonist: agonists of human beta-2 adrenergic receptor inducing internalization. response, % (concentration not given with the values). hit rate 0.43% among 340,000. P07550. Am2.2-beta2AR cells, FAP receptor internalization, flow cytometry; reference of the scale not given here;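 active = response above a set limit, near 3 SD of response in nonfluorescent compounds, cut at about 42% in these data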;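 note: stock transfer was 100 nL into about 11 µL; a reference agonist was the positive control; negative values mostly stem from fluorescent compounds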
Ecoli rRNA inh OD600: further read-out of Ecoli rRNA inh, marked with its call; OD600 change, %; measured here: OD600 growth;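 optical density of the mix in the first replicate; 0 = DMSO median and -100 = no signal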
Ecoli rRNA inh RFP: also measured in Ecoli rRNA inh; calls as there; RFP signal change, %; measured here: RFP humanized mutant strains;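 first replicate; 0 = DMSO median and -100 = no signal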
Active calls of the source: *; ? = inconclusive; / = no result given. The list is partial, so the mix of outcomes need not match the whole.

Second line of a record – ALR inh, Ecoli rRNA inh, Beta2AR agonist, Beta apoptosis, Ecoli rRNA inh OD600, Ecoli rRNA inh RFP, A1 inh, Calb FLC, T cruzi inh, LANA-H2B inh
> Cc1cc(N2C(=O)CC(Cc3ccc(Cl)cc3)C2=O)no1 (stereo not drawn)
 : -9, /, 2, -8, /, /, 0.6, 3, -1, 2.4
> COc1ccc(NC(=O)Nc2cccs2)cc1Cl
 : 40, 1, -7, 0, 13, 5.0, -7.6, ?, -2, -3.1
> Cc1ccc(S(=O)(=O)Nc2cc3c(cc2N2CCOCC2)n(C)c(=O)c(=O)n3C)cc1
 : -7, 2, 1, -6, -6, -3.2, -0.3, -5, 5, 1.3
> O=C(COC(=O)CCC(=O)c1cccs1)Nc1cccc(F)c1
 : 1, 5, 2, 1, 5, 0.5, -0.4, /, /, -2.0
> COc1ccc(NC(=O)c2ccc(C)cc2)cc1
 : -3, 3, 1, /, 9, -3.0, -4.7, -8, -4, 0.0
> COc1ccc(C2(O)CCN(C(=O)c3c(F)cccc3F)CC2)cc1
 : 0, 4, -1, /, 0, 1.2, 0.2, 0, -10, 0.6
> O=C(NCCCn1ccnc1)/C(=C\c1ccco1)NC(=O)c1ccco1
 : 4, 4, -7, -2, 4, 1.3, 1.7, -5, -4, 3.1
> C=CCn1cc(C(=O)c2cc(Br)ccc2O)cc(C#N)c1=O
 : 1, -2, -5, 6, -3, 4.0, -0.7, -7, -1, 0.2
> COc1ccccc1NS(=O)(=O)c1cccc(C(=O)NCC(c2ccc(F)cc2)N2CCOCC2)c1 (stereo not drawn)
 : 1, 0, -1, /, -4, 0.0, 0.1, 16, 6, 1.5
> CCOC(=O)N1CCN(CCC(=O)Nc2ccc(OC)cc2)CC1
 : /, /, -2, -1, /, /, 0.0, -15, 2, -3.0
> CCn1c(=O)n(CC)c2cc(S(=O)(=O)NCCOc3ccccc3)c(C)cc21
 : -5, /, -8, 1, /, /, 1.1, -7, 0, 2.9
> CCOC(=O)N1N=C(C)CC1(O)c1ccccc1 (stereo not drawn)
 : -18, /, 0, -4, /, /, 0.5, 26, 2, 9.9
> COc1cc(NC(=O)c2cccc(F)c2)cc(OC)c1OC
 : 38, 10, -2, 0, 4, -3.7, 0.1, 1, -10, 3.0
> [O-][n+]1c2c(nc3c1-c1ccccc1C3O)CCCC2 (stereo not drawn)
 : 1, /, /, -4, /, /, 0.7, 4, 5, 3.4
> CC(CNC(=O)c1ccc2c(c1)OCO2)c1ccc([N+](=O)[O-])cc1 (stereo not drawn)
 : -7, 29, -3, -2, 25, -0.5, -0.4, -1, -7, 7.0
> Cc1ccc(S(=O)(=O)NCCCCC(NC(=O)OC(C)(C)C)C(=O)O)cc1 (stereo not drawn) (tested in a mixture with another compound)
 : /, /, 0, -5, /, /, -0.7, -10, 5, 3.4
> O=C(COc1nnnc2ccccc12)N1CCCc2ccccc21
 : 3, /, -4, -8, /, /, 0.1, 1, 2, 0.4
> Cc1ccc([N+](=O)[O-])cc1S(=O)(=O)N1CCCC1
 : -11, 8, -2, 0, 11, -1.5, 0.3, 13, 1, -3.1
> CCOC(=O)C1=C(CC)Nc2ccccc2N=C1NC(=O)CCN1C(=O)C2CCCCC2C1=O (stereo not drawn)
 : -3, -4, 6, -1, -3, -0.8, 0.8, 4, -2, 1.3
> COc1cc(C(=O)NCC(=O)N/N=C/c2c(C)[nH]c3ccccc23)cc(OC)c1OC
 : 2, -6, 0, 4, -4, 4.1, 0.8, -2, 4, -1.8
> COc1ccc(CC(=O)NNC(=O)c2ccccc2)cc1OC
 : /, 9, -4, -7, 6, 3.0, -0.8, /, /, 2.2
> Cc1ccc(N2C(=O)C(CC(=O)Nc3cccc(F)c3)N(CCc3ccncc3)C2=O)cc1 (stereo not drawn)
 : 4, -4, -2, -2, 7, -4.9, -0.8, -27, -5, -0.9
> CCc1cccc(NC(=O)[C@@H]2CCCN2C2=NS(=O)(=O)c3ccccc32)c1
 : -2, -2, -8, -3, -8, 0.6, 1.0, /, /, -4.4
> CCc1cc(=O)oc2cc(C)cc(OC(C)C(=O)NCCN3CCOCC3)c12 (stereo not drawn)
 : -7, 2, 0, /, 9, -1.6, 0.2, 0, 2, 0.6
> COc1ccc(/C=N/Nc2ccc(C(F)(F)F)cc2[N+](=O)[O-])cc1
 : -3, /, 4, -1, /, /, 1.8, -10, -3, -1.6
> COC(=O)c1cc(COC(=O)c2nc3nc(C)cc(C)n3n2)oc1C
 : 4, 0, 3, -1, -3, -0.2, 1.9, -10, -1, -5.4
> O=C(C1=C[C@H](C2CC2)C[C@H](OCc2ccc(CO)cc2)O1)N1CCN(Cc2ccccc2)CC1
 : -24, -5, -6, 3, -10, 2.9, -0.5, -2, 60*, 3.3
> COc1ccc(NC(=O)C(CCS(C)(=O)=O)N2C(=O)c3ccccc3C2=O)cc1 (stereo not drawn)
 : -5, 3, 2, -3, 7, -4.3, 1.1, 15, -34, 4.1
> O=C1c2ccc(-c3ccc(F)cc3OCc3ccccc3)cc2S(=O)(=O)c2cccc(C(=O)N3CCN(c4ncc(Cl)cc4Cl)CC3)c21
 : 1, -1, 1, -1, 1, 4.0, -2.1, /, /, 3.2
> CCC(=O)N1CCc2cc(Br)cc(S(=O)(=O)C3(C(=O)OC)CC3)c21
 : 5, /, -9, 9, /, /, -1.3, 13, -13, -0.5
> CCCNS(=O)(=O)/C=C/c1ccccc1
 : -2, 1, -3, -4, 5, -0.8, 2.7, -12, 0, -3.1
> COc1ccccc1/C=C(/C(=O)OCC(N)=O)c1ccccc1
 : -8, -9, 10, 7, -15, -0.4, 0.8, 18, -8, 1.2
> c1ccc(Cn2nnc3c(NCc4ccc5c(c4)OCO5)ncnc32)cc1
 : -3, 4, 0, 14, 12, 0.6, 0.1, -3, 6, -1.1
> COC(=O)c1ccccc1NC(=O)CSc1nnc(Cc2ccc(Cl)cc2)o1
 : -15, /, -1, -5, /, /, 0.0, 2, 4, 0.8
> COc1ccc(CCC(=O)Nc2cnc3ccccc3c2)cc1
 : -8, -7, -15, 2, -8, -1.8, -1.1, 37, -4, -4.6
> Cc1ccc(-n2cc3c(=O)n(C)c(=O)n(C)c3c2)cc1C
 : -12, /, -4, 2, /, /, 0.3, 24, 10, -0.6
> COc1ccc(NC(=O)N2CCC(NC(=O)c3ccco3)CC2)cc1
 : -18, /, 7, -3, /, /, 1.0, 22, -6, -0.4
> CC(=O)Nc1ccc(CN2CCN(CC(C)C)C(CCO)C2)cc1 (stereo not drawn)
 : -15, 10, 2, -5, 14, -1.7, -0.2, -10, 14, 1.8
> O=C(N/N=C/c1ccc([N+](=O)[O-])cc1)c1cnccn1
 : -8, 12, /, 0, 5, -2.1, -0.5, 1, -5, 4.1
> CC(C)CC(=O)N1CCN(Cc2cccc([N+](=O)[O-])c2)CC1
 : -9, 14, 3, 0, 8, 1.1, -1.2, 16, -16, -0.1
> CSc1ccc(/C=C/C(=O)NC23CC4CC(CC(C4)C2)C3)cc1
 : -3, -5, 1, 2, -4, 15, -0.8, 0, -12, 2.8
> CC(C)CC(=O)NC(=S)Nc1sc2c(c1C(N)=O)CCC2
 : 4, 5, -9, /, 10, 1.6, -0.9, 16, -8, 2.3
> CCn1cnc2sc(C(=O)N3CCN(Cc4ccc5c(c4)OCO5)CC3)c(C)c2c1=O
 : -3, 4, /, -8, 3, 3.0, 0.6, 3, 5, -0.8
> Cc1cc(Br)ccc1NC(=O)CNC(=O)CSc1n[nH]c(N)n1
 : -3, /, 5, -4, /, /, 0.3, -9, -10, -2.5
> Fc1ccc(CN(Cc2ccccc2)C(c2cccs2)c2nnnn2C2CCCCC2)cc1 (stereo not drawn)
 : -8, /, 5, 94*, /, /, -0.2, 6, ?, 1.0
> O=C1N(C2CCCC2)C[C@@H]2C[C@@H](c3cccn3-c3nccs3)N3CCC[C@@]123
 : -1, 14, 0, 0, 3, 3.3, 0.1, -19, 18, 4.1
> O=c1[nH]c(=S)[nH]nc1Cc1ccc(Cl)c(Cl)c1
 : 11, -7, 19, -2, -15, -2.5, -0.2, 91*, 2, 3.6
> Cn1c(=O)c(-c2ccccc2)c(O)c2ccccc21
 : 5, 10, -3, -5, 7, -3.1, -0.6, 22, -1, -0.4
> Fc1ccc(C2CC(c3ccco3)=Nc3ccccc3S2)cc1 (stereo not drawn)
 : -4, -17, -15, -4, 0, 1.6, -0.3, -8, -13, 8.5
> Cc1cccc(NS(=O)(=O)c2nnc(NC(=O)c3ccc(Cl)cc3)s2)c1
 : /, 3, 3, 1, 1, 3.0, 0.5, -1, 1, -0.7
> O=S1(=O)CC(O)C(N=Nc2c(O)n(Cc3ccccc3)c3ccccc23)C1 (stereo not drawn)
 : 20, 9, 2, -6, 8, -0.7, 0.5, -13, 6, -9.6
> CCc1ccc(OC)c(S(=O)(=O)Nc2ccc(Cc3ccncc3)cc2)c1
 : -1, 3, -8, 101*, -24, -4.5, -0.5, 3, 26, -2.8
> COC(=O)/C(=C/c1cccc([N+](=O)[O-])c1)NC(=O)c1ccc(OC)cc1
 : -11, /, -2, -5, /, /, 0.0, 2, -12, -4.7
> CCOc1ccc(-c2c[n+](=O)c3c(n2[O-])CCCC3)c(OCC)c1
 : 2, /, -3, -2, /, /, 1.4, 2, -6, 5.5
> CC(=O)Nc1ccc(-n2c(C)ccc2-c2ccccc2)cc1
 : -72, -7, 16, -6, -8, 1.4, 0.2, -6, 0, -2.0
> Cc1cnc(C(=O)OC(C)C(=O)Nc2ccc(Oc3ccccc3)cc2)cn1 (stereo not drawn)
 : -1, 8, -1, -2, 1, -0.4, 0.2, /, /, 2.7
> c1ccc2c3n(nc2c1)CCCCO3
 : -6, 15, 10, -2, 18, -0.4, -0.8, /, /, 6.2

Source: PubChem BioAssay (several laboratories)
